# HCMV NEC inh – inhibitors of HCMV UL50-UL53 nuclear egress complex interaction; HTRF UL50-UL53 interaction, normalized percent inhibition; inhibition, % (no concentration beside the values); 190,000 tested, 0.15% active; AID 1918969;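 active = both replicates at 50% or more, plus weaker picks with an unusually low signal ratio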;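 also: stock transfer was 100 nL into about 20 µL; 0% = negative control wells and 100% = wells with untagged competitor protein; inactives centre near -12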
# GIV-Gai inh – inhibitors of GIV GBA-motif binding to rat Galpha-i3; P08753; percent of control (FP), % (test concentration not listed); Galpha-i3/FITC-GIV peptide fluorescence polarization, 90 min; hits give low values; scaled: aluminum fluoride 0%, vehicle 100%; 210,000 tested, 0.42% active;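 active = replicate mean at 85% of control or lower, very high polarization wells dropped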;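 also: wells of about 15 µL received 100 nL stock; the first replicate is given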
# Target sequence (P08753 whole entry, looked up): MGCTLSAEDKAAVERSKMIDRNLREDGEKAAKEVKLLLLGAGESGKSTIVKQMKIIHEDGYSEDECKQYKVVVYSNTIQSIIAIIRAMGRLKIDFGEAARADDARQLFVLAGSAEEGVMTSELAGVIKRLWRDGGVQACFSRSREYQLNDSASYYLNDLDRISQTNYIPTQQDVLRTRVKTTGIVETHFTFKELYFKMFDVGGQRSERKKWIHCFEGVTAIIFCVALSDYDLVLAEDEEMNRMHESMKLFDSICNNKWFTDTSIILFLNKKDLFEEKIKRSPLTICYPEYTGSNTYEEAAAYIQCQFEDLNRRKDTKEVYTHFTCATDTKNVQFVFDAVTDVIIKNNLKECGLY
# Sa growth inh – inhibitors of Staphylococcus aureus growth at 42 °C | S. aureus RN4220 growth, OD600, 20 h; hits give low values | relative growth, % (concentration not given with the values) | 170,000 tested, 0.53% active;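 active = growth at 42 °C up to 50% and 20 or more points under that at 30 °C, or under 10% at both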;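 also: 300 nL library stock went into each well; scaled to the means of positive and negative controls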
# Sa growth inh second temp – further read-out of Sa growth inh, marked with its call; relative growth, %; measured here: growth at 30 °C;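 optical density after 20 h as mean of two plates; 100% = untreated growth and lower means inhibition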
# Numbers without * were called inactive; . = not tested or not shown; & = joins results of further samples. Compounds were not picked by outcome; 0.83% or so of the library scored in one or more.
No.	SMILES	HCMV NEC inh	GIV-Gai inh	Sa growth inh	Sa growth inh second temp
1	COc1ccc(C(=O)CNc2ccccc2C#N)cc1	-37	.	91	84
2	CCCC(=O)N(Cc1nc2nc(C)cc(=O)n2[nH]1)c1ccc(C)cc1	-26	105	.	.
3	C=CCOc1ccccc1C1CC(=O)Nc2c1c(C)nn2-c1nncc(-c2ccc(C)cc2)n1 (stereo unspecified)	-37	96	.	.
4	Cc1ccc(Nc2nc3ccccc3nc2-n2nc(C)cc2C)c(Cl)c1	-5	100	102	87
5	COc1cc(CNn2cnnc2)ccc1OCC(=O)NC(C)(C)C	-4	103	106	94
6	Cc1nc(-c2ccc(C)c(S(=O)(=O)N3CCC(C(=O)N4CCN(c5ccc(F)cc5)CC4)CC3)c2)no1	-11	98	.	.
7	CC(Sc1nnc(Nc2ccc(Oc3ccccc3)cc2)s1)C(=O)NC(C)(C#N)C(C)C (stereo unspecified)	9	.	121	98
8	CNC(=O)c1sc2ncccc2c1-n1cccc1	.	105	106	102
9	CC(=O)N1CCN(S(=O)(=O)c2cccc(C(=O)Nc3ccc(N(C)C)cc3)c2)CC1	-8	.	102	94
10	CCOC(=O)c1cnc(SC)nc1Nc1ccccc1	-35	100	71	74

# Complete entries, looked up by structure. Values in the order: HCMV NEC inh	GIV-Gai inh	Sa growth inh	Sa growth inh second temp
# Shown for C=CCOc1ccccc1C1CC(=O)Nc2c1c(C)nn2-c1nncc(-c2ccc(C)cc2)n1 (stereo unspecified) : -37	96	.	.
# Shown for Cc1nc(-c2ccc(C)c(S(=O)(=O)N3CCC(C(=O)N4CCN(c5ccc(F)cc5)CC4)CC3)c2)no1 : -11	98	.	.
# Shown for CC(=O)N1CCN(S(=O)(=O)c2cccc(C(=O)Nc3ccc(N(C)C)cc3)c2)CC1 : -8	.	102	94

# Going on with the list:
No.	SMILES	HCMV NEC inh	GIV-Gai inh	Sa growth inh	Sa growth inh second temp
11	O=C(Cn1cnc2nc(N3CCCCC3)sc2c1=O)Nc1ccccc1	5	106	.	.
12	COc1ccc(CC(=O)Nc2ccc(N3CCOCC3)cc2)cc1OC	27	105	94	84
13	C=CCSc1nc2c(C(=O)OCC)nnn2c2ccccc12	35	99	77	67
14	Nc1ccccc1SCc1cccc(Cl)c1F	-30	100	92	93
15	CCOc1ccc(-c2cc(C(=O)NCc3ccc(C)cc3)c3ccccc3n2)cc1	.	97	105	92
16	Cc1ccc(C)c(N2CCN(C(=O)c3ccc(CS(=O)(=O)c4ccc(Br)cc4)o3)CC2)c1	22	100	100	75
17	COc1cccc(OCCn2cc(C(=O)c3ccco3)c3ccccc32)c1	-34	98	80	85
18	CC(C)(C)c1cc(C(C)(C)C)n(-c2ccc(-n3cccc3)cc2)n1	-58	104	89	94
19	O=C(NC(c1ccccc1)c1ccccc1)c1nc[nH]c1C(=O)NCc1ccccn1	-6	102	.	.
20	CCC(CC)NC(=O)C(C)Oc1ccccc1 (stereo unspecified)	-11	.	92	76
21	CC1CCCC(C)N1c1nnc(N)s1 (stereo unspecified)	-18	94	92	79
22	COc1ccc(C(=O)Nc2cc(-c3noc(C)n3)sc2C)c(OC)c1	-16	108	.	.
23	Cc1cccc(N2CCN(S(=O)(=O)c3ccc4c(c3)C(C(C)C)C(=O)N4)CC2)c1C (stereo unspecified)	.	101	62	45
24	O=C(O)Cc1nc2ccc(Cl)cc2[nH]1	2	99	66	89
25	N/C(CCN1CCCCC1)=N\O	-33	103	96	89
26	Cc1ccc2c(c1)c(=O)c(C(=O)c1ccncc1)cn2CC(=O)Nc1ccccc1Cl	.	108	87	86
27	CCOC(=O)Cn1c(=O)oc2cc(S(=O)(=O)N3CCN(c4cccc(C)c4C)CC3)ccc21	-30	95	112	85
28	COc1ccc(OC)c(C(=O)c2oc3ccc(OC)cc3c2N)c1	-28	107	131	98
29	O=C(O)CCS(=O)(=O)c1ccc(Cl)cc1	-27	99	97	89
30	COc1ccccc1N1CCN(C(=O)Cc2csc(NC(=O)Nc3ccccc3)n2)CC1	-7	107	.	.
31	CCCCC(=O)Nc1ccc(N2CCCC2)cc1	-11	102	.	.
32	c1ccc(-c2ccc(Oc3ncnc4c3oc3ccccc34)cc2)cc1	14	.	106	93
33	CCOC(=O)c1ccc(N=C2SC(C(=O)Nc3cccc(OCC)c3)CC(=O)N2C)cc1 (stereo unspecified)	-22	102	.	.
34	CN(C)C(=O)N1CCN(Cc2ccc3c(c2)OCO3)CC1	-12	106	108	82
35	COc1ccc(CC(=O)N2CCc3cc(OC)c(OC)cc3C2COc2ccc3c(C)cc(=O)oc3c2)cc1OC (stereo unspecified)	-4	105	102	86
36	FC(F)(F)c1cc(C#CCN2CCCCC2)cc(C(F)(F)F)c1	-17	103	86	91
37	O=c1c(S(=O)(=O)c2cccc(F)c2)c[nH]c2cc(Cl)c(F)cc12	-4	103	.	.
38	CC(OC(=O)C1CCN(c2ccc(C(F)(F)F)cn2)CC1)C(=O)Nc1ccccc1F (stereo unspecified)	-9	.	114	92
39	COc1cccc(NC(=O)c2nnn(-c3ccc4noc(-c5ccccc5)c4c3)c2C)c1	-35	96	.	.
40	CC(C)CNC(C)C(=O)Nc1ccc(S(N)(=O)=O)cc1 (stereo unspecified)	-17	.	103	91
41	O=C(NCC(c1cccnc1)c1c[nH]c2ccccc12)Nc1cccc(Cl)c1 (stereo unspecified)	-8	99	.	.
42	COc1ccc(OCCOC(=O)/C(=C/c2cccs2)c2cccs2)cc1	-12	.	85	91
43	Cc1ccc(NC(=O)c2noc3c2CCC3)cc1	3	99	100	78
44	CCOc1ccc(CNC(=O)C2CCCN(S(=O)(=O)N(CC)c3ccc(OCC)cc3)C2)cc1 (stereo unspecified)	.	112	88	97
45	CCC(C(=O)O)n1cnc2ccccc2c1=O (stereo unspecified)	-2	96	93	106
46	O=c1c(O)coc(CO)c1C(Nc1ccccn1)c1ccccc1O (stereo unspecified)	-2	.	92	90
47	Cc1ccc2oc(C(=O)NCc3ccncc3)cc(=O)c2c1	-49	95	101	83
48	CCSc1nnc(SCc2nc(N)nc(Nc3ccccc3C)n2)s1	-11	.	90	98
49	Cc1c(Cl)cccc1NC(=O)c1ccco1	4	.	111	82
50	O=C(OCCSc1ccc(Cl)cn1)c1cccc(Cl)c1	-12	108	100	83
51	COc1ccc(Br)cc1-c1nc(CSc2nc(C)c(C)c(=O)[nH]2)c(C)o1	-44	108	.	.
52	CNC(=O)c1cncc(C(=O)NC)c1	-8	.	80	86
53	Cn1c(C(=O)O)c(CC(=O)NCC2COc3ccccc3O2)c2ccccc21 (stereo unspecified)	1	98	96	95
54	CC(C)(C)NS(=O)(=O)C1CCS(=O)(=O)C1 (stereo unspecified)	-10&-7	100&104	111	89
55	COc1ccc(CNC(=O)C2CCN(c3cc(C(=O)Nc4cccc(OC)c4)ccn3)CC2)cc1	-7&-8	100&108	101	86
56	Cc1ccc(CC2CC(=O)N(c3cc(C)on3)C2=O)cc1 (stereo unspecified)	-1	99	125	87
57	CC(=O)N1CCCc2cc(S(=O)(=O)N3CCCC(C(=O)Nc4ccc(C)c(F)c4)C3)ccc21 (stereo unspecified)	.	101	98	66
58	Cc1csc(NC(=O)C(F)(F)F)c1-c1nc2ccccc2s1	-19	108	93	89
59	CN(C)C(CNCc1ccc(-n2cnc3ccccc32)cc1)c1ccco1 (stereo unspecified)	-10	.	106	92
60	CCc1ccc(Oc2c(CC(=O)O)oc3cc(O)c(CC)cc3c2=O)cc1	-12	105	84	72

# New compounds follow
No.	SMILES	HCMV NEC inh	GIV-Gai inh	Sa growth inh	Sa growth inh second temp
61	CCOC(=O)c1c(C)[nH]c(C)c1C(=O)COC(=O)C1Cc2ccccc2CN1C(C)=O (stereo unspecified)	-1	.	95	96
62	COc1ccc(N2CCN(CCCNC(=O)c3cnn(-c4ccc(C)cc4)c3-n3cccc3)CC2)cc1	.	98	130	97
63	Oc1oc(-c2ccccc2)nc1C=Nc1cccnc1	8	108	121	99
64	CCOc1ccc(Nc2nc(NCc3cccnc3)nc(OC)n2)cc1	-18	105	.	.
65	COc1ccc(CCNc2nc3c(c(C(F)(F)F)n2)CC(C)CC3)cc1OC (stereo unspecified)	.	103	111	81
66	CSc1ccccc1NC(=O)C1CCCC1	-12	.	87	91
67	Cc1cc(NC(=O)CSc2nc3ccccc3c(=O)n2CCCN2CCC(C)CC2)n[nH]1	-26	107&106	105	90
68	CC(=O)n1cc(/C=N/NC(=O)c2cccc(O)c2)c2ccccc21	-62	102	83	84
69	Cc1nc(C)c(S(=O)(=O)N2CCC(C(=O)c3ccccc3)CC2)s1	-1	101	100	97
70	Cc1ccc(CNC(=O)C2CCC(CNS(=O)(=O)c3ccc4c(c3)CCCC(=O)N4)CC2)cc1 (stereo unspecified)	.	99	82	86
71	CC(C)(C)c1ccc(Oc2ccc(NC(=O)c3ccccc3)cn2)cc1	-7	100	74	61
72	O=C1OC(c2ccccc2)Cc2ccccc21 (stereo unspecified)	5	.	91	100
73	COc1ccccc1-c1c(C)nn2c(N3CCc4ccccc43)cc(C)nc12	-3	97	99	90
74	CC1=C(C(N)=O)C(c2ccc(Cl)cc2)n2ncnc2N1 (stereo unspecified)	-8	113	.	.
75	O=C(c1cc(=O)nc2sc(N3CCOCC3)nn12)N1CCC(N2CCCCC2)CC1	-29	101	.	.
76	O=C(NC1CCCCC1)N1CCCC1c1ccc(Cl)cc1 (stereo unspecified)	-29	104	.	.
77	CCOC(=O)c1c(C)nn(-c2ccc(NC(=O)c3cccs3)cc2)c1C	2	99	99	81
78	CC1CCCC2(C1)NCCN=C2NCc1ccc(Cl)cc1 (stereo unspecified)	13	98	.	.
79	CCCCNC(=O)c1nn(-c2ccc(OC)cc2)c(=O)n(C)c1=O	-98	104	.	.
80	N#Cc1c(SCC(N)=O)nsc1SCc1ccc(Cl)cc1	-6	.	133	94
81	CCOC(=O)C1CCN(c2nc3c(S(=O)(=O)c4ccccc4)nnn3c3ccsc23)CC1	.	105	121	74
82	CCC(C)N1C(=O)c2c(NC(C)=O)c3cc(F)ccc3n2CC1(C)C(=O)NC1CCCC1 (stereo unspecified)	38	98	.	.
83	Cc1sc2nc3c4ccccc4c(NCc4ccco4)nn3c(=O)c2c1C	-17	114	99	79
84	CN(C(=S)Nc1ccc(OC(F)F)cc1)C1CCCCC1	-19	103	102	93
85	O=C(c1cc2ccccc2s1)N(Cc1ccccn1)Cc1ccccn1	-15	104	112	86
86	N#CC1(NC(=O)CSc2ccccc2F)CCCCC1	-14	.	84	92
87	CC(C)(C)OC(=O)N1CCC(c2c(C(=O)NCc3ccccn3)cnn2-c2ccccc2)CC1	.	105	89	86
88	COc1ccc2nc(SCC(=O)Nc3ccccc3Br)[nH]c2c1	9	103	.	.
89	CCN(CC(=O)NCC12CC3CC(CC(C3)C1)C2)Cc1nc2ccccc2c(=O)[nH]1	-5	.	79	79
90	O=C1Nc2ccccc2/C1=N\N1CCN(Cc2ccc(Cl)cc2)CC1	.	102	84	37
91	CCCCc1nc(NCCO)c(C#N)c2c1CCCC2	-11	108	111	79
92	CCNc1cc(N2CCN(c3ccccc3)CC2)c2noc3c2c1C(=O)c1ccccc1-3	-2	114	96	92
93	O=C1Nc2ccccc2C(O)(C(=O)NCc2ccc3c(c2)OCO3)N1c1c(F)cccc1F (stereo unspecified)	.	97	107	92
94	CCCCNS(=O)(=O)c1ccc(N)cc1	-10	99	93	88
95	Cc1ccc(C)c(NS(=O)(=O)c2cc3c4c(c2)C(C)C(=O)N4CCC3)c1 (stereo unspecified)	.	102	111	97
96	Cc1ccc(-n2nc3c(N4CCC(C(=O)NCCc5ccccc5)CC4)nnc(C)c3c2C)cc1	.	109	84	94
97	O=C(Oc1ccccc1)N1CCCC1	-24	104	83	91
98	O=c1oc2c(CN3CCN(CCO)CC3)c(O)ccc2cc1-c1nc2ccccc2s1	-86	-45*	92	79
99	CCCC(=O)N1CCc2cc(OC)c(OC)cc2C1COc1ccc2c(C)cc(=O)oc2c1 (stereo unspecified)	3	106	98	88
100	COC(=O)Cn1c(C(O)c2ccccc2)nc2ccccc21 (stereo unspecified)	-5&-20	109&101	115	106
101	Cc1nc(SCC#N)c2c3c(sc2n1)CCCC3	-9	105	126	82
102	COc1ccc(C2=CC(c3ccccc3Cl)n3nc(-c4ccc(Cl)cc4)nc3N2)cc1 (stereo unspecified)	-22&-16	101&101	114	91
103	CC(C)N1C(=O)CCC1C(=O)NCc1ccccc1 (stereo unspecified)	6	104	101	86
104	C=CCNC(=O)CSc1nccc(-c2sc3scc(C)c3c2C)n1	0	102	84	85
105	CC1CC(=O)Nc2ccccc2S1 (stereo unspecified)	0	108	100	97
106	CSc1ccc(-c2cccs2)nn1	.	102	87	76
107	OC(c1ccccc1)c1ccncc1 (stereo unspecified)	-2	100	96	73

# Entries 99 to 104, reprinted for reference:
No.	SMILES	HCMV NEC inh	GIV-Gai inh	Sa growth inh	Sa growth inh second temp
99	CCCC(=O)N1CCc2cc(OC)c(OC)cc2C1COc1ccc2c(C)cc(=O)oc2c1 (stereo unspecified)	3	106	98	88
100	COC(=O)Cn1c(C(O)c2ccccc2)nc2ccccc21 (stereo unspecified)	-5&-20	109&101	115	106
101	Cc1nc(SCC#N)c2c3c(sc2n1)CCCC3	-9	105	126	82
102	COc1ccc(C2=CC(c3ccccc3Cl)n3nc(-c4ccc(Cl)cc4)nc3N2)cc1 (stereo unspecified)	-22&-16	101&101	114	91
103	CC(C)N1C(=O)CCC1C(=O)NCc1ccccc1 (stereo unspecified)	6	104	101	86
104	C=CCNC(=O)CSc1nccc(-c2sc3scc(C)c3c2C)n1	0	102	84	85
